FGF22 binding – FGF22 (human) thermal shift binding; Q9HCT0; recombinant FGF22 thermal shift, SYPRO orange fluorescence; percent of sucrose octasulfate shift, DMSO zero; calls only at 9.99 µM; 1.5% of 340,000 active; AID 651658;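 active = melting point raised past a set limit in the mean and every replicate; three in four hits are not shown here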
Target sequence (Q9HCT0 whole entry, looked up): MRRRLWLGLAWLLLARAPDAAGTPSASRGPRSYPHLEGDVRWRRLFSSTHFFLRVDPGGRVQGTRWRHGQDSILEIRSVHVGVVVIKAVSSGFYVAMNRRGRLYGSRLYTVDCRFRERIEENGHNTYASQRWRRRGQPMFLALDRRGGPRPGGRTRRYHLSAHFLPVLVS
rRNA inh HTS – selective bacterial rRNA inhibition in E. coli | E. coli WT GFP vs humanized-ribosome RFP mutants, fluorescence, 24 h; active compounds read low; DMSO median 0, no signal -100 | GFP signal change (wild-type ribosome), % (concentration not given with the values) | 1.6% of 350,000 active;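 active = significant combined selectivity score with lowered wild-type GFP, culture density cut under 30%, mutant RFP and density less affected; inactive = any of these conditions unmet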; note: one replicate is shown; some compounds called inactive have numbers as strong as hits
rRNA inh HTS OD600 – also measured in rRNA inh HTS; calls as there; OD600 change, %; measured here: OD600 growth;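 optical density of the mix in the first replicate; 0 = DMSO median and -100 = no signal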
rRNA inh HTS RFP – second read-out of rRNA inh HTS, no call of its own (marks repeat the call); RFP signal change, %; measured here: RFP humanized mutant strains;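 first replicate; 0 = DMSO median and -100 = no signal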
The depositor's hits bear a star; i = inactive; + = active, no number. Not all compounds are listed; the hit share may differ from the screen's.

smiles	FGF22 binding	rRNA inh HTS	rRNA inh HTS OD600	rRNA inh HTS RFP
CCCN(C(=O)C1CCCN(c2ncnc3c2nc2n3CCCCC2)C1)c1ccccc1C (stereo not drawn)	i	5	3	1.3
O=[N+]([O-])c1ccc2c(c1)CO[C@]21O[C@H](CCO)C[C@H](O)[C@H]1O	i	13	5	2.5
COc1ccccc1-c1cn(CC[C@H]2CC[C@H](NC(=O)CCN3CCCCC3)[C@@H](CO)O2)nn1	i	2	-3	-3.0
C[C@H](O)C#Cc1cnc2c(c1)C(=O)N([C@H](C)CO)C[C@@H](C)[C@@H](CN(C)CC1CCOCC1)O2	i	0	-3	-3.7
CN(C)C(=O)c1cccc(-c2ccc3c(c2)[C@H]2[C@H](CCN2C(=O)c2ccncc2)[C@H](CO)N3C)c1	i	-1	2	-5.3
CO[C@@H]1CN(C)C(=O)c2cc(NC(=O)c3ccc4c(c3)OCO4)ccc2OC[C@H](C)N(CC2CC2)C[C@H]1C	i	2	-1	-0.2
C[C@H](CO)N1C[C@H](C)[C@@H](CN(C)C(=O)Nc2cccc3ccccc23)Oc2ccc(NC(=O)Nc3ccc4c(c3)OCO4)cc2C1=O	i	4	-1	-1.5
C[C@@H]1CN([C@@H](C)CO)C(=O)c2cc(NC(=O)Nc3ccc(C(F)(F)F)cc3)ccc2O[C@@H](C)CCCCO[C@@H]1CN(C)C(=O)Nc1cccc2ccccc12	i	0	5	1.3
CC(=O)N1[C@@H](CO)[C@@H]2c3ccccc3N(S(=O)(=O)c3ccccc3C)C[C@@H]21	i	-6	-9	-0.4
CC(C)NC(=O)Nc1ccc2c(c1)CC(=O)N([C@@H](C)CO)C[C@H](C)[C@H](CN(C)Cc1ccc(C(F)(F)F)cc1)O2	i	-6	-6	0.6
COc1ccc(NC(=O)Nc2ccc3c(c2)C(=O)N([C@@H](C)CO)C[C@H](C)[C@@H](CN(C)CC2CCCCC2)OCCCC[C@H](C)O3)cc1	i	3	0	-2.0
OC[C@@H]1[C@H](c2ccc(Br)cc2)[C@H]2CNCCCCN12	i	7	24	-1.1
CCCC#Cc1ccc2c(c1)O[C@H](CN(C)C(=O)c1cnccn1)[C@@H](C)CN([C@H](C)CO)S2(=O)=O	i	-5	-14	1.1
C[C@@H]1CN([C@@H](C)CO)C(=O)c2cc(C#Cc3ccccc3F)cnc2O[C@@H]1CN(C)S(=O)(=O)c1ccccc1F	i	0	-1	2.0
C[C@@H]1CN([C@@H](C)CO)S(=O)(=O)c2ccc(-c3ccccc3)cc2O[C@H]1CN(C)Cc1ccncc1	i	-42	-55	12
Cc1ccc(S(=O)(=O)N(C)C[C@@H]2Oc3ccc(NC(=O)c4ccncc4)cc3C(=O)N([C@H](C)CO)C[C@H]2C)cc1	i	0	5	0.0
CO[C@@H]1CC[C@@H]2CCOc3c(C#N)cccc3C(=O)N(C)C[C@@H](c3ccccc3)CC(=O)N(C)C[C@@H]1O2	i	1	1	-2.2
CC(C)NC(=O)Nc1ccc2c(c1)C(=O)N([C@@H](C)CO)C[C@H](C)[C@@H](CN(C)CC1CCCCC1)OCCCC[C@@H](C)O2	i	4	6	0.2
COc1ccc(NC(=O)Nc2cccc3c2O[C@H](CN(C)S(=O)(=O)c2ccc(Cl)cc2)[C@H](C)CN([C@@H](C)CO)C3=O)cc1	i	-23*	-6.5*	-0.2*
CCS(=O)(=O)N1CC2(CN(C)[C@H](CO)c3c2c2ccc(OC)cc2n3C)C1	i	2	0	-3.3
Cc1ccc(S(=O)(=O)N(C)[C@H]2C[C@H]3c4[nH]c5c(-c6ccccc6)cccc5c4CCN3C(=O)[C@H]2[C@H](C)O)cc1	i	-20	-27	-1.0
CCC(=O)N1[C@@H]2CN(C(=O)CC(F)(F)F)c3ccccc3[C@@H]2[C@@H]1CO	i	3	0	0.1
COCCNC(=O)C[C@@H]1C[C@H]2c3cc(N(C)C)ccc3O[C@H]2[C@@H](CO)O1	i	6	0	1.2
COCC(=O)N(C)C[C@@H]1Oc2ncc(-c3ccccc3OC)cc2C(=O)N([C@@H](C)CO)C[C@@H]1C	i	-1	5	-0.5
COc1ccc(CN2CC3(CN(C(=O)Cc4ccccc4)C3)c3c([nH]c4cc(OC)ccc34)[C@@H]2CO)cc1	i	-6	-11	-1.9
COc1cccc(C#Cc2ccc([C@@H]3[C@@H](C#N)N(C(=O)C4CC4)[C@@H]3CO)cc2)c1	i	2	3	0.3
O=C(Nc1ccc(F)cc1)N1CCCCN2[C@H](C1)[C@H](c1ccc(-c3cccc(F)c3)cc1)[C@@H]2CO	i	-20	-41	18
COC(=O)C[C@@H]1C[C@@H]2c3cc(NC(=O)Nc4ccc(F)cc4)ccc3O[C@@H]2[C@H](CO)O1	i	-2	0	-4.6
O=C(C[C@@H]1CC[C@@H](NC(=O)C2CC2)[C@@H](CO)O1)Nc1nccs1	i	5	9	-0.7
CC(C)NC(=O)N1[C@@H](CO)[C@@H](c2ccccc2)C12CN(C(=O)Cc1ccccc1)C2	i	3	2	-2.4
C[C@H]1CN([C@@H](C)CO)C(=O)c2cc(-c3ccccc3)cnc2O[C@H]1CN(C)C(=O)C1CCOCC1	i	4	5	-2.9
Cc1ccccc1S(=O)(=O)N1[C@H](CO)[C@@H](c2ccc(-c3ccc(F)cc3)cc2)[C@@H]1C#N	i	-3	-45	21
COc1cccc(S(=O)(=O)N(C)C[C@@H]2Oc3ncc(-c4cccc(F)c4)cc3C(=O)N([C@H](C)CO)C[C@@H]2C)c1	i	3	3	3.4
C[C@@H]1CN([C@@H](C)CO)C(=O)c2cc(NC(=O)NC3CCCCC3)ccc2O[C@H]1CN(C)Cc1ccc2c(c1)OCO2	i	1	-4	0.4
C[C@@H]1CCCCO[C@H](CN(C)Cc2ccccc2)[C@H](C)CN([C@H](C)CO)C(=O)c2cc(NC(=O)C3CCCCC3)ccc2O1	i	1	-21	11
Cc1ccccc1S(=O)(=O)NCC[C@@H]1CC[C@H](NC(=O)C2CC2)[C@@H](CO)O1	i	2	2	-3.8
C[C@@H]1CN([C@H](C)CO)C(=O)c2cc(NC(=O)Nc3ccc4c(c3)OCO4)ccc2O[C@H]1CN(C)S(=O)(=O)c1cccs1	i	-7	-9	-3.1
C[C@H]1CCCCO[C@H](CN(C)C(=O)Nc2ccc3c(c2)OCO3)[C@@H](C)CN([C@@H](C)CO)C(=O)c2cc(NC(=O)CCCN(C)C)ccc2O1	i	3	7	2.3
CCCC(=O)Nc1ccc2c(c1)C(=O)N(C)[C@H]1CC[C@@H](CC(=O)NCC3CCCCC3)O[C@@H]1CO2	i	2	-4	2.4
Cc1ccc(S(=O)(=O)N(C)C[C@H]2Oc3ccc(NC(=O)C4CC4)cc3C(=O)N([C@H](C)CO)C[C@H]2C)cc1	i	-6	-8	-3.8
Cc1noc(C)c1NC(=O)Nc1ccc2c(c1)C(=O)N([C@@H](C)CO)C[C@@H](C)[C@@H](CN(C)S(C)(=O)=O)O2	i	2	4	-1.3
CCC(=O)N(C)C[C@@H]1Oc2cc(-c3ccc(C)cc3)ccc2S(=O)(=O)N([C@H](C)CO)C[C@H]1C	i	-4	-19	4.6
COc1ccc(NC(=O)Nc2ccc3c(c2)C(=O)N([C@@H](C)CO)C[C@@H](C)[C@@H](CN(C)S(=O)(=O)c2cccs2)OCCCC[C@@H](C)O3)cc1	i	-6	-2	-1.8
COCCN(C[C@H]1[C@@H](c2ccccc2)[C@H](CO)N1C(C)=O)C(=O)c1ccncc1	i	2	7	-5.0
C[C@H](CO)N1C[C@H](C)[C@@H](CN(C)C(=O)CCCN(C)C)OCCCC[C@H](C)Oc2ccc(N(C)C)cc2C1=O	i	0	5	-0.2
CCS(=O)(=O)Nc1ccc2c(c1)C(=O)N(C)[C@@H]1CC[C@H](CC(=O)Nc3ccccc3)O[C@@H]1CO2	i	0	0	-2.1
C[C@H]1CN([C@@H](C)CO)C(=O)c2cc(C#CC(C)(C)O)cnc2O[C@@H]1CN(C)C(=O)C1CCOCC1	i	6	13	-5.0
C[C@@H]1CN([C@H](C)CO)C(=O)c2cc(C#Cc3ccccc3)cnc2O[C@H]1CN(C)C(=O)C1CC1	i	-2	4	-0.5
CCCNC(=O)N(C)C[C@@H]1Oc2ncc(-c3ccc(F)cc3)cc2C(=O)N([C@@H](C)CO)C[C@H]1C	i	0	6	-5.0
C[C@@H]1CN([C@@H](C)CO)C(=O)Cc2cc(NC(=O)Cc3ccccc3)ccc2O[C@H]1CN(C)S(=O)(=O)c1cn(C)cn1	i	3	5	1.6
COCC(=O)N1[C@H](C#N)[C@H](c2ccc(C3=CCCC3)cc2)[C@H]1CO	i	2	15	-1.5
O=C(O)C[C@@H]1C[C@@H]2c3cc(NC(=O)C4CCC4)ccc3O[C@@H]2[C@@H](CO)O1	i	-1	-1	0.0
C/C=C/c1cnc2c(c1)C(=O)N([C@@H](C)CO)C[C@H](C)[C@@H](CN(C)S(=O)(=O)c1ccccc1F)O2	i	-4	-6	-1.6
CCC(=O)N1C[C@@H](O)COC[C@@H]2O[C@H](CC(=O)NC)CC[C@H]21	i	4	-16	-0.7
COCCNC(=O)C[C@@H]1CC[C@H]2[C@H](COc3ccc(NC(C)=O)cc3C(=O)N2C)O1	i	3	4	0.0
C[C@H](NC(=O)C[C@@H]1CC[C@@H](NC(=O)Nc2ccc3c(c2)OCO3)[C@@H](CO)O1)c1ccccc1	+	0	-2	-1.2
COCC(=O)Nc1ccc2c(c1)[C@@H]1C[C@H](CC(=O)N3CCCCC3)O[C@H](CO)[C@@H]1O2	i	3	0	-1.0
CN1CCN(C(=O)C[C@@H]2CC[C@H](NC(=O)c3ccc4c(c3)OCO4)[C@@H](CO)O2)CC1	i	-1	-5	-2.8
CCNC(=O)c1cc2c(c(-c3cccc(-c4cccc(C(=O)N(C)C)c4)c3)n1)[C@H](CCO)N([S@@](=O)C(C)(C)C)C2	i	-6	-9	0.9
COCCNC(=O)C[C@H]1C[C@H]2c3cc(NC(=O)c4cccnc4)ccc3O[C@H]2[C@@H](CO)O1	i	-1	-5	-4.3

3 entries out of the list above, sorted by the value under rRNA inh HTS, lowest first:
smiles	FGF22 binding	rRNA inh HTS	rRNA inh HTS OD600	rRNA inh HTS RFP
C[C@@H]1CN([C@H](C)CO)C(=O)c2cc(C#Cc3ccccc3)cnc2O[C@H]1CN(C)C(=O)C1CC1	i	-2	4	-0.5
CCCNC(=O)N(C)C[C@@H]1Oc2ncc(-c3ccc(F)cc3)cc2C(=O)N([C@@H](C)CO)C[C@H]1C	i	0	6	-5.0
CCC(=O)N1C[C@@H](O)COC[C@@H]2O[C@H](CC(=O)NC)CC[C@H]21	i	4	-16	-0.7

The listing picks up; the 7 compounds before the break are reprinted first.
smiles	FGF22 binding	rRNA inh HTS	rRNA inh HTS OD600	rRNA inh HTS RFP
CCC(=O)N1C[C@@H](O)COC[C@@H]2O[C@H](CC(=O)NC)CC[C@H]21	i	4	-16	-0.7
COCCNC(=O)C[C@@H]1CC[C@H]2[C@H](COc3ccc(NC(C)=O)cc3C(=O)N2C)O1	i	3	4	0.0
C[C@H](NC(=O)C[C@@H]1CC[C@@H](NC(=O)Nc2ccc3c(c2)OCO3)[C@@H](CO)O1)c1ccccc1	+	0	-2	-1.2
COCC(=O)Nc1ccc2c(c1)[C@@H]1C[C@H](CC(=O)N3CCCCC3)O[C@H](CO)[C@@H]1O2	i	3	0	-1.0
CN1CCN(C(=O)C[C@@H]2CC[C@H](NC(=O)c3ccc4c(c3)OCO4)[C@@H](CO)O2)CC1	i	-1	-5	-2.8
CCNC(=O)c1cc2c(c(-c3cccc(-c4cccc(C(=O)N(C)C)c4)c3)n1)[C@H](CCO)N([S@@](=O)C(C)(C)C)C2	i	-6	-9	0.9
COCCNC(=O)C[C@H]1C[C@H]2c3cc(NC(=O)c4cccnc4)ccc3O[C@H]2[C@@H](CO)O1	i	-1	-5	-4.3
COc1ccc(-c2cnc3c(c2)C(=O)N([C@H](C)CO)C[C@@H](C)[C@@H](CN(C)C(=O)Nc2c(C)noc2C)O3)cc1	i	4	16	-1.0
CCCC#Cc1ccc([C@H]2[C@@H](CO)N3CCCCN(CC4CCOCC4)C[C@H]23)cc1	i	9	14	4.0
O=C(c1ccncc1)N1CCCCN2[C@@H](CO)[C@@H](c3ccc(-c4ccccc4)cc3)[C@@H]2C1	i	-1	2	-3.2
CC(C)NC(=O)Nc1ccc2c(c1)C(=O)N([C@@H](C)CO)C[C@@H](C)[C@H](CN(C)S(=O)(=O)c1ccc(Cl)cc1)OCCCC[C@@H](C)O2	i	-4	-8	1.5
C[C@@H]1CN([C@@H](C)CO)C(=O)c2cc(NC(=O)Cn3cnnn3)ccc2O[C@H]1CN(C)Cc1ccncc1	i	-3	0	-0.8
Cc1noc(C)c1NC(=O)N(C)C[C@@H]1OCCCC[C@H](C)Oc2ccc(NC(=O)NC(C)C)cc2C(=O)N([C@@H](C)CO)C[C@@H]1C	i	5	2	0.0
O=C(C[C@H]1C=C[C@@H](NC(=O)Nc2cc(F)ccc2F)[C@@H](CO)O1)NCCCN1CCOCC1	i	2	10	-0.5
CO[C@@H]1CN(C)C(=O)c2ccc(NC(=O)c3ccccn3)cc2OC[C@@H](C)N(CCC(F)(F)F)C[C@H]1C	i	1	3	-1.6
C[C@@H]1CN([C@H](C)CO)S(=O)(=O)c2ccc(-c3ccccc3)cc2O[C@@H]1CN(C)C(=O)Cc1ccccc1	i	-19	-40	2.8
CCCC(=O)Nc1ccc2c(c1)OC[C@H](C)N(C)C[C@H](C)[C@H](OC)CN(C)C2=O	i	0	2	-1.6
